From PubChem BioAssay
RecA intein inh: blocks M. tuberculosis RecA intein splicing; P9WHJ3; cell-free RecA intein splicing, fluorescence; inhibition, %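 (about 9 µM by stock and volumes)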; 0.75% of 290,000 active; AID 2221; in the data active means inhibition above about 30%; inconclusive means no clear call, values can overlap the other calls;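 further: 0% = vehicle wells and 100% = reference inhibitor control wells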
Target sequence (P9WHJ3 whole entry, looked up): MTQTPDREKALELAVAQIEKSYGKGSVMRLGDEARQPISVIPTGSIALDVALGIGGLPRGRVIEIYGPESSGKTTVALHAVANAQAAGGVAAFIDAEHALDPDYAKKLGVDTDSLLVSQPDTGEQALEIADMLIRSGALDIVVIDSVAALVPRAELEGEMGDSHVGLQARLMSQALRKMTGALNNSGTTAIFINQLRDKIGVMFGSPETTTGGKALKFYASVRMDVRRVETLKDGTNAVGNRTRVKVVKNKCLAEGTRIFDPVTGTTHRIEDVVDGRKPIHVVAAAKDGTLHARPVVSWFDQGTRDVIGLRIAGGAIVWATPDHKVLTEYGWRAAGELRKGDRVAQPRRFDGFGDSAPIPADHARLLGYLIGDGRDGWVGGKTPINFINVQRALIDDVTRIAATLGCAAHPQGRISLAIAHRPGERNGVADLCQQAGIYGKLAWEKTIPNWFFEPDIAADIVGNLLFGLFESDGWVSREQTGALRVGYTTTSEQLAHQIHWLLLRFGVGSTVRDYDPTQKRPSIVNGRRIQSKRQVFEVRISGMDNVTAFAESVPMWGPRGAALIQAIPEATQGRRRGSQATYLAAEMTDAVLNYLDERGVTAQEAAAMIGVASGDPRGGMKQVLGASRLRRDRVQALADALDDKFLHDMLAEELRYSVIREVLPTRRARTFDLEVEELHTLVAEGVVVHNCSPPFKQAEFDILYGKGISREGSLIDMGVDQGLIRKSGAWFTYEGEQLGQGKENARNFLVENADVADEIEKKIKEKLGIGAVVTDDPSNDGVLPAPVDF
YopH inh: YopH (Yersinia) phosphatase inhibition; fluorescence Ex485/Em525; inhibition, %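 (about 10 µM by stock and volumes)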; 0.16% of 140,000 active; AID 898;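 active means inhibition of 50% or more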;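 further: controls were vehicle for no effect and minimum signal wells for full effect; inactives centre near -20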
Mtb growth: M. tuberculosis H37Rv growth inhibitors, H37Rv strain (AID 1626) | M. tuberculosis H37Rv growth inhibition; higher % means a stronger effect | one-dose inhibition, % at 10 µM; IC50 in µM for titrated hits | 0.95% of 220,000 active;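 active means confirmed in a dose series; inconclusive means inhibition above 80% but not taken into the dose series; inactive means below 80% or under 30% at every dose of the series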;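 further: bacteria incubated seven days before Alamar blue readout; 0% = bacteria only wells and 100% = bacteria with antibiotic wells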
Mtb bLac sens: beta-lactam sensitization of Mtb H37Rv; 0.27% of 330,000 active; M. tuberculosis H37Rv growth with meropenem, percent inhibition; hits of this screen are not shown here; inhibition, % at 25 µM; AID 434955;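 active means about 74% or more and at least 40 points above the plate without the antibiotic, then above 30% in a dose series; inconclusive means first-round hits that could not be retested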;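 further: growth measured after seven days incubation then overnight dye step; 0% = bacteria only wells and 100% = bacteria with antibiotic; twin plates without the antibiotic show which effects depend on it; some results filed as inactive read as strong as hits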
Arbovirus inh: blocks arbovirus infection; inhibition, % at 10 µM; 0.37% of 200,000 active; arbovirus infection cell-based antiviral screen;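 active means inhibition from about 30%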;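 further: bluetongue infection of BSR cells; cell survival read as ATP light after 72 h; 0% = infected wells without compound and 100% = uninfected wells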
Arbovirus inh repeat: further read-out of Arbovirus inh, marked with its call; inhibition, %; measured here: 10K subset replicate screen; many hits read low in the repeat;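 first of two repeat runs on a subset; 0% = infected and 100% = uninfected wells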
The depositor's hits bear a star; ? = inconclusive; . = no result given. These rows are one share of the data. The share of hits here may be higher or lower than overall.

SMILES	RecA intein inh	YopH inh	Mtb growth	Mtb bLac sens	Arbovirus inh	others
COc1cc(/C=N/NC(=O)C(Cc2c[nH]c3ccccc23)NC(=O)OCc2ccccc2)cc([N+](=O)[O-])c1O (centres undefined)	4.0	-19	8%	3	-6
C/C(=N/NC(=O)c1cc(C2CC2)[nH]n1)c1cccs1	-0.7	-7	-10%	-2	1
CN(C)CCCn1c(SCC(=O)Nc2nc(-c3cccc(Br)c3)cs2)nc2ccccc2c1=O	-3.9	.	5.6µM*	100	.
CCOC(=O)/C=C/c1ccc2c(c1)S(=O)(=O)N(Cc1ccc(OC)cc1)[C@H]2CC(=O)OCC	0.0	.	0%	80	.
Cc1ccc(C(=O)C(C)OC(=O)Cn2[nH]c(=O)c3ccccc3c2=O)cc1C (centres undefined)	1.3	.	.	-10	.
COC(=O)c1ccc(COc2cc([N+](=O)[O-])cc3cccnc23)o1	-2.4	.	-14%	-4	-8
Cc1ccc2c(c1)N(CC(=O)NCc1ccco1)C(=O)CO2	0.8	27	-8%	-3	7
O=C(COC(=O)C1CCN(c2ccc(C(F)(F)F)cn2)CC1)Nc1cc(F)ccc1F	2.1	.	.	-5	.
COC(=O)c1cc(OC)c(OC)cc1NC(=O)Nc1ccc(OC)cc1OC	0.0	2	-8%	-10	2
CCCn1c(CN2CCN(C(=O)c3ccco3)CC2)nc2c1c(=O)n(C)c(=O)n2C	-0.5	-22	-5%	3	0	Arbovirus inh repeat=0
O=C(O)c1ccccc1N1C(=O)c2cccc3cccc(c23)C1=O	-7.6	.	.	0	.
O=C(NC1CC2CCC1C2)C1COc2ccccc2O1 (centres undefined)	0.5	-34	33%	8	-9
O=C1N(Cc2cccnc2)C[C@@H]2C[C@@H](c3ccc(-c4ccccc4)cc3)N3CCC[C@@]123	7.4	.	4%	-5	0
COc1ccc(C(O)P(=O)(O)CCc2ccccc2)cc1 (centres undefined)	-2.4	-39	-12%	-10	8
CCc1cccc(C)c1NC(=O)CSc1nc(-c2ccccc2F)nc2nc[nH]c12	-3.9	-22	-7%	-3	-11
C=CCOC(=O)C1=C(C)NC(SCC(=O)OCC)=C(C#N)C1c1ccc(O)c(OC)c1 (centres undefined)	6.3	3	-3%	.	-10
O=C(Nc1cccc2nsnc12)c1ccc2c(c1)OCCO2	6.6	-19	-3%	7	0
CCOC(=O)/C=C/C(=O)OCC(=O)Nc1cccc(Br)c1	0.5	.	3%	-3	5
O=C(CN1C(=O)c2ccccc2S1(=O)=O)c1ccc(Cl)cc1Cl	-0.5	.	.	-15	.
Cc1c(C(=O)N2CCCCC2)c(S(=O)(=O)NCc2ccc(Cl)cc2)c(C)n1C	-1.4	.	.	-3	.
COC(=O)c1cccc(Oc2cccc(Cl)n2)c1	1.6	.	5%	3	-5
CCOC(=O)CSc1nc2ccc(C)cc2cc1C#N	-3.6	-8	0%	7	-5
COc1cccc(OC)c1C(=O)OCC(=O)/C(C#N)=C(\C)N	-1.5	.	-5%	14	1
COc1cc(NC(=S)NCc2ccc(S(N)(=O)=O)cc2)cc(OC)c1	-0.1	.	-3%	2	-1
CCCn1c(SCC(=O)Nc2cc(C)on2)nc2c1c(=O)n(C)c(=O)n2C	-1.3	-25	-6%	11	.
SMILES	RecA intein inh	YopH inh	Mtb growth	Mtb bLac sens	Arbovirus inh	others
O=C(NS(=O)(=O)c1ccccc1)c1ccccc1	-0.7	-18	-5%	-13	-3
COc1ccccc1-n1c(=S)sc2c(=O)n(Cc3ccco3)c(SC)nc21	0.0	-29	8%	74	5
CCN(CC)S(=O)(=O)c1ccc(Cl)c(NC(C)=O)c1	0.0	.	3%	-9	1
O=C(NNS(=O)(=O)c1ccc([N+](=O)[O-])cc1)C(=O)Nc1cccc(C(=O)O)c1	-1.9	.	.	0	.
COC(=O)COc1ccc(S(=O)(=O)NCc2ccc3c(c2)OCO3)cc1C	-0.8	.	.	0	.
COc1ccc(NC(=O)COC(=O)Cn2c(C)nc3ccccc32)cc1OC	2.6	5	1%	-8	8
O=C(NC(=S)N1CCN(c2ccc(C(F)(F)F)cc2[N+](=O)[O-])CC1)c1cccs1	11	-41	?	67	-27
COC(=O)C1C(=O)/C(=C/N(C)C)C(=O)CC1(C)C (centres undefined)	-5.8	.	-1%	-6	6
CCn1c(SCc2cccc(F)c2)nnc1-c1ccncc1	-2.3	.	.	-3	.
O=C(CCC(=O)N1CCCCC1)Nc1nnc(C2CCCCC2)s1	0.8	.	.	-1	.
CCOC(=O)C1(Cc2ccccc2C)CCCN(C(=O)c2cc(CC)nn2C)C1 (centres undefined)	1.8	.	1%	-1	-4
O=C(CCN1C(=O)/C(=C\c2ccccc2F)SC1=S)Nc1ccc(C(=O)O)c(O)c1	32*	.	.	32	.
COC(CNC(=O)[C@H](CSCc1ccccc1)N1Cc2ccccc2C1=O)OC	-1.5	.	-9%	3	4
NS(=O)(=O)c1ccc(CNC(=O)/C=C/c2ccccc2)cc1	0.4	-25	-9%	-6	5
CCOC(=O)C1(CCOC)CCN(Cc2ccncc2)CC1	-1.2	.	4%	17	-5
O=C(N/C(=C\c1ccc(Cl)cc1)C(=O)N1CCCCC1)c1ccco1	-0.7	.	.	-11	.
S=C(NC1CCCCC1)N1CCN(c2ncccn2)CC1	-1.4	.	1%	1	-2
COc1ccc(C(=O)NCCS(=O)(=O)N2CCCC2)cc1	1.6	.	.	-2	.
Cc1ccc(-c2nnc(SCC(=O)NC3CCCc4ccccc43)n2N)cc1 (centres undefined)	2.9	-21	0%	-3	-6
COc1ccc2oc(-c3ccc(C)c(NC(=O)c4ccc(N5CCOCC5)c([N+](=O)[O-])c4)c3)nc2c1	0.4	-23	-1%	2	3
CCc1ccc2nc(NC(=O)c3cc(C)on3)sc2c1	1.2	-44	6%	62	-17
CCOC(=O)N1CCN(C(=O)c2ccc(CS(=O)c3ccccc3)o2)CC1 (centres undefined)	3.2	.	.	-1	.
O=C(Nc1ccc(OCC(=O)N2CCN(S(=O)(=O)c3ccccc3)CC2)cc1)c1ccco1	-0.7	-26	-3%	-3	1
COCCCn1c(C)nnc1SCC(=O)Nc1ccc(C(C)=O)cc1	2.6	.	.	-31	.
Cc1ccccc1NC(=S)NC(NC(=O)C(C)(C)C)C(Cl)(Cl)Cl (centres undefined)	-2.1	-31	2%	-6	2

Structures from the list above containing a halogen (13):
SMILES	RecA intein inh	YopH inh	Mtb growth	Mtb bLac sens	Arbovirus inh	others
CN(C)CCCn1c(SCC(=O)Nc2nc(-c3cccc(Br)c3)cs2)nc2ccccc2c1=O	-3.9	.	5.6µM*	100	.
O=C(COC(=O)C1CCN(c2ccc(C(F)(F)F)cn2)CC1)Nc1cc(F)ccc1F	2.1	.	.	-5	.
CCc1cccc(C)c1NC(=O)CSc1nc(-c2ccccc2F)nc2nc[nH]c12	-3.9	-22	-7%	-3	-11
CCOC(=O)/C=C/C(=O)OCC(=O)Nc1cccc(Br)c1	0.5	.	3%	-3	5
O=C(CN1C(=O)c2ccccc2S1(=O)=O)c1ccc(Cl)cc1Cl	-0.5	.	.	-15	.
Cc1c(C(=O)N2CCCCC2)c(S(=O)(=O)NCc2ccc(Cl)cc2)c(C)n1C	-1.4	.	.	-3	.
COC(=O)c1cccc(Oc2cccc(Cl)n2)c1	1.6	.	5%	3	-5
CCN(CC)S(=O)(=O)c1ccc(Cl)c(NC(C)=O)c1	0.0	.	3%	-9	1
O=C(NC(=S)N1CCN(c2ccc(C(F)(F)F)cc2[N+](=O)[O-])CC1)c1cccs1	11	-41	?	67	-27
CCn1c(SCc2cccc(F)c2)nnc1-c1ccncc1	-2.3	.	.	-3	.
O=C(CCN1C(=O)/C(=C\c2ccccc2F)SC1=S)Nc1ccc(C(=O)O)c(O)c1	32*	.	.	32	.
O=C(N/C(=C\c1ccc(Cl)cc1)C(=O)N1CCCCC1)c1ccco1	-0.7	.	.	-11	.
Cc1ccccc1NC(=S)NC(NC(=O)C(C)(C)C)C(Cl)(Cl)Cl (centres undefined)	-2.1	-31	2%	-6	2

Returning to the listing, starting two compounds before the break.
SMILES	RecA intein inh	YopH inh	Mtb growth	Mtb bLac sens	Arbovirus inh	others
COCCCn1c(C)nnc1SCC(=O)Nc1ccc(C(C)=O)cc1	2.6	.	.	-31	.
Cc1ccccc1NC(=S)NC(NC(=O)C(C)(C)C)C(Cl)(Cl)Cl (centres undefined)	-2.1	-31	2%	-6	2
CCCOc1ccc(Cn2c(=O)oc3ccc(C)cc32)cc1	-4.5	.	.	-4	.
COC(=O)CCc1n[nH]c(=O)[nH]c1=O	-0.3	-49	-6%	1	3	Arbovirus inh repeat=1
O=C(/C=C/c1ccccc1O)c1ccco1	0.3	.	.	95	.
CC1=C(C)CC(C(=O)NCCc2ccc(F)cc2)C(C(=O)O)C1 (centres undefined)	0.5	.	.	2	.
O=C(CCl)Nc1cccc(S(=O)(=O)N2CCCCCC2)c1	44*	-34	12%	99	-20
Cc1csc(SC(C)C(=O)NCc2ccc3c(c2)OCO3)n1 (centres undefined)	-5.2	.	1%	-6	-6
Cc1cccc[n+]1CC(=O)c1ccc(NC(=O)c2ccccc2)cc1	1.5	.	.	2	.
CCOc1ccc(/C=N/n2c(SC)nnc2-c2ccccc2)cc1OCC	4.5	-2	0%	92	-2
CCOC(=O)NN1C(=O)c2ccccc2NC1c1cccs1 (centres undefined)	-2.6	.	.	5	.
CCOc1ccc(CN2CCCN(C)CC2)cc1	0.0	-1	-4%	3	-9
C=CCn1c(O)c(/C=N/N2CCOCC2)c(=O)[nH]c1=S	-7.0	-23	.	6	6
COCCNC(=O)/C(C#N)=C1\N=C(NC(=O)c2cccs2)c2ccccc21	-1.5	.	.	0	.
Cc1csc(NC(=O)CSc2nc(=O)n(CCN(C)C)c3c2CCCC3)n1	2.2	.	.	0	.
COc1cccc(CNC(=O)C(C)n2ccc3cc(S(=O)(=O)N4CCCCCC4)ccc32)c1 (centres undefined)	8.4	.	.	2	.
CSc1ccc(C(=O)C2CCCN(C(=O)c3nn(C)c(=O)c4ccccc34)C2)cc1 (centres undefined)	-2.1	.	-4%	-6	1
CC(C(=O)Nc1ccccc1C(=O)N1CCCC1)n1nnc2ccccc21 (centres undefined)	.	-56	0%	1	7
Cc1ccc(N2C(=O)N(CC(=O)N(C)Cc3ccccc3)C(=O)C2C)cc1 (centres undefined)	-1.2	10	-7%	-19	-14
COc1cccc(Cn2c(Oc3ccccc3)nc3c2c(=O)n(C)c(=O)n3C)c1	6.3	-29	-2%	0	9
C=CCn1c(SCC(=O)CC(=O)OCC)nc2cc(C(=O)N3CCC(C(N)=O)CC3)ccc2c1=O	3.1	.	-1%	-7	-2
O=C(O)c1ccc(OCCN2CCCC2=O)cc1	-3.0	.	.	5	.
Cc1cc(C)c2cc(C(=O)Nc3ccc(C)c(F)c3)[nH]c2c1	2.8	.	.	99	.
CCOC(=O)C1CCCN(C(=O)c2ccc(CS(=O)(=O)c3ccc(C)cc3)o2)C1 (centres undefined)	-0.2	14	-6%	-10	10	Arbovirus inh repeat=6
Cc1cccc(NC(=O)Nc2cc(C)cc(C)n2)c1	.	.	0%	-5	0
COC(=O)Cc1c(C)c2ccc(OC(=O)c3ccccc3)cc2oc1=O	-9.3	-3	37%	94	8
COc1ccc(-c2cc(C(=O)NCCCN3CCOCC3)c3ccccc3n2)cc1OC	-0.2	.	.	-11	.
SMILES	RecA intein inh	YopH inh	Mtb growth	Mtb bLac sens	Arbovirus inh	others
Cc1cc2cc(CNC(=O)CCC(=O)O)ccc2n1C	6.8	.	0%	2	6
CC(C)OC(=O)CSc1nnc(-c2ccccn2)n1-c1ccccc1	2.6	0	-10%	48	5
O=C(CN1CCN(c2ccccn2)CC1)Nc1cccc(C(F)(F)F)c1	1.0	-41	-10%	16	5	Arbovirus inh repeat=3
Cc1[nH]c(C(=O)O)c(C#N)c1C(=O)c1ccccc1	3.3	.	.	-5	.
CCOc1ccc(/C(O)=C2/C(=O)C(=O)N(c3ncccn3)C2c2ccc(C)cc2)cc1 (centres undefined)	-3.0	.	-12%	36	.
O=C(CN1CCN(c2ccc(F)cc2)CC1)c1ccc2c(c1)OCO2	-2.0	-28	.	-1	-11
CN(C)S(=O)(=O)c1cccc(NC(=O)CNC2CCCCC2)c1	-0.9	.	-10%	-9	.
O=C(COc1ccc(F)cc1)N(CC1=CCS(=O)(=O)C1)c1ccccc1	1.7	-175	1%	-1	-1
CC(=O)Nc1ccc(S(=O)(=O)N(C)CC(=O)N/N=C/c2cccs2)cc1	5.8	.	.	-8	.
OCCC1CN(Cc2cccc3nccnc23)CCN1C1CCCC1 (centres undefined)	-1.3	.	-6%	-7	-1
O=C(c1cccs1)N1CCN=C1SCc1ccccc1	3.1	4	-1%	-11	-3
CC(C)(C)CC(C)(C)NCC(O)COc1c(F)cc(Br)cc1F (centres undefined)	-0.2	-1	14%	-5	-44
